Screening data: PubChem, several laboratories
PABP polyA inh: blocks human PABP binding to poly(A) RNA; 290,000 compounds, 1% hits; inhibition, % at 35 µM; fluorescence polarization;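 active = 50% or more with normal probe brightness, or confirmed in later tests; about a fifth of its hits are not listed in these tables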;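 also: calls also rest on retests at 20 µM and on dose response follow-up; controls were probe without protein and protein plus probe with vehicle; some compounds called inactive have numbers as strong as hits; many hits fall short of the cut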
Target sequence (P11940 whole entry, looked up): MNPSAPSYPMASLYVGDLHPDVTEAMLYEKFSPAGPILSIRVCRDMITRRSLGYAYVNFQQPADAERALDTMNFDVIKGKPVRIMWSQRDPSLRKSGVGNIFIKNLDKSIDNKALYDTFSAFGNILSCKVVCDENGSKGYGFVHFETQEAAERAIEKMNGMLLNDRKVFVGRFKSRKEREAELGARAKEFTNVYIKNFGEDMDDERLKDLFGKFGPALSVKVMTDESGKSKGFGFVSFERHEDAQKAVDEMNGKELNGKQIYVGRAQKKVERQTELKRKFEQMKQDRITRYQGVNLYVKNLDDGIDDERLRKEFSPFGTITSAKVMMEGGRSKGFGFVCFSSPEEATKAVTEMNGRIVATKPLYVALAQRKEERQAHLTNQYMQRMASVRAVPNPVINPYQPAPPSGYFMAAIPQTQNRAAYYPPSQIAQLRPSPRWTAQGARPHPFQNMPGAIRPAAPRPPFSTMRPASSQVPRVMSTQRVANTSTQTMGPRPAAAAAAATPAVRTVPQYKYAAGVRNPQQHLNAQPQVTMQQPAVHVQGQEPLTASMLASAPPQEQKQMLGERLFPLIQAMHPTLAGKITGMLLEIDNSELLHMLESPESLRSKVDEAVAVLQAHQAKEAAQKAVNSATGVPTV
CSC inhib: blocks cancer stem cells; cancer stem cell-like cells viability, luminescence; inhibition, % at 7.5 µM; 300,000 compounds, 1.1% hits; AID 2717;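 active = mean at 75% or more and at least half the replicates too; tested in HMLE shEcad cells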;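 also: 0% = median of negative and 100% = median of positive control wells; the first replicate is given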
eIF4H FP inh: inhibitors of RNA binding by human eIF4H | 290,000 compounds, 0.94% hits | Q15056 | inhibition, % at 35 µM | eIF4H fluorescence polarization binding assay;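 active = 50% or more with normal probe brightness, or confirmed in later tests; about a fifth of its hits are not listed in these tables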;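 also: calls also rest on retests at 20 µM and on dose response follow-up; 0% = protein and probe with vehicle and 100% = probe without protein; strong numbers were not always called active; many hits fall short of the cut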
Yeast UUG start: yeast start codon fidelity modulation; S. cerevisiae UUG-firefly luciferase reporter, luminescence/redox ratio; activity score, % at 18.7 µM; 350,000 compounds, 0.13% hits;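 active = replicate mean at a twofold rise or more, about +100% in these data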;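 also: firefly luciferase made from a UUG start codon reports start codon fidelity; reporter light over untreated wells divided by growth signal over untreated wells; some hits fall short of that in this replicate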
Rce1 inhib: inhibitors of yeast Ras-converting enzyme | Q03530 | yeast membranes, quenched prenylated peptide cleavage fluorescence | calls only | 290,000 compounds, 0.27% hits;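 active = fall in fluorescence gain of 50% or more versus controls, with final raw signal at or below 3038400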;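 also: plate controls were neutral control wells for no effect and wells lacking membranes for full effect; tested at 10 µM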
Env fusion inh: blocks HIV Env-driven cell-cell fusion | AID 651610 | inhibition, % at 12.3 µM | HeLa-JRFL Env/CEM21 cell fusion, luciferase | 360,000 compounds, 1.1% hits;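 active = mean replicate inhibition score of at least 50 and every replicate individually at or above 50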;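 also: 0% = plate neutral controls and 100% = maraviroc near 300 nM; one replicate is shown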
MT1-MMP act inh: inhibitors of human MT1-MMP activation. P50281. HT1080 RFP-PRO-GFP cells, GFP/RFP ratio fluorescence, overnight; percent of plate control window, DMSO zero. GFP/RFP ratio change, % at 20 µM. 360,000 compounds, 0.061% hits. AID 651647;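 active = GFP/RFP ratio change of at least 30% with cell ATP level not reduced by more than half and red fluorescence within 50% of control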; also: strong numbers were not always called active
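Read-out: GFP/RFP fluorescence ratio; Test system: RFP-PRO-GFP reporter HT1080 cells; Compound dosing: single-point 20 µM compound, 1% DMSO; Times: overnight compound exposure at 37 °C.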
MT1-MMP act inh RFP: second read-out of MT1-MMP act inh, no call of its own (marks repeat the call); RFP signal change, %; measured here: RFP expression control read;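 0 = vehicle wells; hits needed this value within 50% of zero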
Numbers without * were called inactive.

Screening Cc1ccc(N(CC(O)CN2CCCCC2)S(=O)(=O)c2ccccc2)cc1 (configuration not stated) returned CSC inhib -8, Yeast UUG start 7, Rce1 inhib inactive, Env fusion inh -3, MT1-MMP act inh -3 and MT1-MMP act inh RFP 4.
`O=C(CN1C(=O)NC2(CCCC2)C1=O)Nc1cc(C(F)(F)F)ccc1N1CCCCC1` gave CSC inhib -2, Yeast UUG start 1, Env fusion inh 13, MT1-MMP act inh 1 and MT1-MMP act inh RFP 0.
Screening Cc1cccc(C(=O)NCCC(=O)Nc2ccc(C)c(F)c2)c1 returned PABP polyA inh 2, CSC inhib 7, eIF4H FP inh 11, Yeast UUG start -5, Rce1 inhib inactive, Env fusion inh -22, MT1-MMP act inh -1 and MT1-MMP act inh RFP -1.
For CN1CCN(C2=Cc3cc(Cl)ccc3Sc3cc(F)ccc32)CC1 the results were PABP polyA inh 9, CSC inhib 113*, eIF4H FP inh 1, Yeast UUG start 4, Rce1 inhib inactive, MT1-MMP act inh -23 and MT1-MMP act inh RFP -16.
`CCC(CO)Oc1cc(NCc2ccc(C)c(C)c2)c2ncn(C(C)C)c2c1` (configuration not stated) gave Yeast UUG start -5, Env fusion inh -30, MT1-MMP act inh 5 and MT1-MMP act inh RFP -4.
`CCC(=O)c1ccc(OCC(=O)OCC(=O)Nc2cccc(S(=O)(=O)N3CCOCC3)c2)cc1` gave Yeast UUG start -3, Env fusion inh 1, MT1-MMP act inh 2 and MT1-MMP act inh RFP 3.
CCN1CCN(c2cc(C)c3cc(NC(=O)c4cccnc4Cl)ccc3n2)CC1 was read as PABP polyA inh -10, CSC inhib 7, eIF4H FP inh -2, Yeast UUG start -16, Rce1 inhib inactive, Env fusion inh -13, MT1-MMP act inh -6 and MT1-MMP act inh RFP 2.
Screening CC/C=C/C(=O)N1CC2(CC(c3cccc(NC(=O)COc4ccc(Cl)cc4)c3)=NO2)C[C@H]1C(N)=O (some centres not stated) returned PABP polyA inh 3, CSC inhib -5, eIF4H FP inh -1, Yeast UUG start 3, Rce1 inhib inactive, Env fusion inh 4, MT1-MMP act inh 3 and MT1-MMP act inh RFP -4.
`Cc1ccc2nc(SCC(=O)OCc3ccccc3)nc(=O)n2c1` gave CSC inhib 4, Yeast UUG start -8, Rce1 inhib inactive, Env fusion inh 29, MT1-MMP act inh 3 and MT1-MMP act inh RFP -2.
`O=C(CCCN1C(=O)/C(=C/c2ccccc2Cl)SC1=S)NNC(=O)c1ccc(Cl)cc1Cl` gave PABP polyA inh -12, CSC inhib -15, eIF4H FP inh 0, Rce1 inhib inactive, Env fusion inh 57*, MT1-MMP act inh 4 and MT1-MMP act inh RFP 1.
Screening CN1CCN(C(=O)c2ccccc2-c2nc(-c3ccccc3)no2)CC1 returned PABP polyA inh -1, CSC inhib -3, eIF4H FP inh 9, Yeast UUG start -25, Rce1 inhib inactive, MT1-MMP act inh -1 and MT1-MMP act inh RFP -1.
Screening O=C(COc1ccccc1[N+](=O)[O-])N(Cc1ccccc1)c1ccccn1 returned PABP polyA inh -6, CSC inhib 5, eIF4H FP inh 5, Rce1 inhib inactive, Env fusion inh 7, MT1-MMP act inh 1 and MT1-MMP act inh RFP 3.
For Cc1csc(NC(=O)c2c(-c3c(Cl)cccc3Cl)noc2C)n1 the results were PABP polyA inh 5, CSC inhib 5, eIF4H FP inh 1, Yeast UUG start -31, Rce1 inhib inactive, MT1-MMP act inh -4 and MT1-MMP act inh RFP -6.
`COc1cc(/C=C2\C(=N)N3N=C(S(C)(=O)=O)SC3=NC2=O)cc(OC)c1OCCOc1cccc(C)c1` gave PABP polyA inh 4, CSC inhib 6, eIF4H FP inh -3, Yeast UUG start -13, Rce1 inhib inactive, Env fusion inh 8, MT1-MMP act inh 0 and MT1-MMP act inh RFP 0.
For Clc1ccc(CN2CCCCCCC2)cc1 the results were PABP polyA inh -8, CSC inhib -12, eIF4H FP inh 12, Yeast UUG start 0, Rce1 inhib inactive, Env fusion inh 10, MT1-MMP act inh 2 and MT1-MMP act inh RFP 6.

Quoted at random: two compounds from above
For CN1CCN(C2=Cc3cc(Cl)ccc3Sc3cc(F)ccc32)CC1 the results were PABP polyA inh 9, CSC inhib 113*, eIF4H FP inh 1, Yeast UUG start 4, Rce1 inhib inactive, MT1-MMP act inh -23 and MT1-MMP act inh RFP -16.
`CCC(CO)Oc1cc(NCc2ccc(C)c(C)c2)c2ncn(C(C)C)c2c1` (configuration not stated) gave Yeast UUG start -5, Env fusion inh -30, MT1-MMP act inh 5 and MT1-MMP act inh RFP -4.

(next part)
CN(C)c1cc(N/N=C\c2ccccc2)nc(N(C)C)n1 was read as PABP polyA inh 6, CSC inhib 18, eIF4H FP inh 3, Rce1 inhib inactive, Env fusion inh 15, MT1-MMP act inh -4 and MT1-MMP act inh RFP 0.
`COC(=O)c1cnn(-c2cc(Oc3cccc(C)c3)ncn2)c1N` gave PABP polyA inh -3, CSC inhib 39, eIF4H FP inh -8, Yeast UUG start -12, Rce1 inhib inactive, MT1-MMP act inh 3 and MT1-MMP act inh RFP -4.
`O=C(CN(Cc1cccs1)C(=O)CNS(=O)(=O)c1ccc(Cl)cc1)NCc1ccco1` gave PABP polyA inh 9, CSC inhib -11, eIF4H FP inh 18, Yeast UUG start -24, Rce1 inhib inactive, Env fusion inh -16, MT1-MMP act inh 4 and MT1-MMP act inh RFP 0.
`CCc1noc(C)c1C(=O)Nc1nc2c(C)cccc2s1` gave CSC inhib -5, Yeast UUG start -15, Rce1 inhib inactive, Env fusion inh -16, MT1-MMP act inh -2 and MT1-MMP act inh RFP -2.
For O=C(COC(=O)CCc1c[nH]c2ccccc12)Nc1ccc([N+](=O)[O-])cc1 the results were PABP polyA inh -10, CSC inhib 9, eIF4H FP inh -14, Rce1 inhib inactive, MT1-MMP act inh 10 and MT1-MMP act inh RFP 7.
For Cc1ccc(S(=O)(=O)N(C)c2ccc(C(=O)N3CCC(C(N)=O)CC3)cc2)cc1 the results were PABP polyA inh -5, CSC inhib 17, eIF4H FP inh -14, Yeast UUG start -11, MT1-MMP act inh -3 and MT1-MMP act inh RFP -1.
Screening CC(C)(C)N1C(=O)[C@H]2[C@@H](c3ccc(Br)cc3)N3C(=O)N(c4ccc(Br)cc4)C(=O)[C@@]3(Cc3ccccc3)[C@H]2C1=O returned PABP polyA inh 18, CSC inhib 14, eIF4H FP inh 10, Yeast UUG start -2, Rce1 inhib inactive, MT1-MMP act inh -3 and MT1-MMP act inh RFP -9.
O=C(CNC(=S)N(Cc1ccccc1F)C1CCCCC1)NCCCN1CCOCC1 was read as PABP polyA inh 21, CSC inhib -5, eIF4H FP inh 1, Rce1 inhib inactive, Env fusion inh 8, MT1-MMP act inh -1 and MT1-MMP act inh RFP 1.
Screening O=C(c1ccc(Cn2c(=S)[nH]c3ccc(Br)cc3c2=O)cc1)N1CCN(C2CCCCC2)CC1 returned PABP polyA inh 3, CSC inhib 30, eIF4H FP inh 5, Yeast UUG start -17, Rce1 inhib inactive, Env fusion inh -9, MT1-MMP act inh -2 and MT1-MMP act inh RFP 1.
Screening O=C(/C=C/c1cccs1)N1CCc2ccccc21 returned PABP polyA inh -12, CSC inhib 9, eIF4H FP inh 1, Yeast UUG start -54, Rce1 inhib inactive, Env fusion inh -254, MT1-MMP act inh -13 and MT1-MMP act inh RFP -2.
`CCN(CC)S(=O)(=O)c1ccc(NC(=O)COC(=O)CCc2cc(OC)c(OC)c(OC)c2)cc1` gave PABP polyA inh 2, CSC inhib 8, eIF4H FP inh -4, Rce1 inhib inactive, MT1-MMP act inh 2 and MT1-MMP act inh RFP 2.
`CCCCCCn1c(C(C)NC(=O)c2ccco2)nc2ccccc21` (configuration not stated) gave PABP polyA inh -4, CSC inhib -12, eIF4H FP inh 2, Yeast UUG start -12, Rce1 inhib inactive, MT1-MMP act inh -1 and MT1-MMP act inh RFP -5.
For Cc1ccccc1CN(C)C(=O)COC(=O)c1ccc2[nH]c(C)c(C)c2c1 the results were CSC inhib 14, Yeast UUG start -11, Env fusion inh -10, MT1-MMP act inh -6 and MT1-MMP act inh RFP -7.
For CC(=O)Nc1ccc2c(c1)NC(=O)CC2 the results were PABP polyA inh -11, CSC inhib 5, eIF4H FP inh -7, Rce1 inhib inactive, Env fusion inh 9, MT1-MMP act inh -3 and MT1-MMP act inh RFP 0.
`C=CCn1c(=N)n(CC(=O)O)c2ccccc21` gave PABP polyA inh 9, CSC inhib -6, eIF4H FP inh -1, Yeast UUG start -10, Rce1 inhib inactive, MT1-MMP act inh 3 and MT1-MMP act inh RFP 5.
COc1cccc(NC(=O)Cn2cc(C#N)c3ccccc32)c1 was read as PABP polyA inh -5, CSC inhib 2, eIF4H FP inh 4, Yeast UUG start -38, Rce1 inhib inactive, MT1-MMP act inh 6 and MT1-MMP act inh RFP 3.
For O=C(NNC(=O)c1cncc(Br)c1)c1ccncc1 the results were CSC inhib 9, Yeast UUG start -15, MT1-MMP act inh -8 and MT1-MMP act inh RFP 0.
O=C(CCC(=O)Nc1ccccc1Cl)NN=C1CCCC1 was read as PABP polyA inh 5, CSC inhib -2, eIF4H FP inh -7, Yeast UUG start -3, Rce1 inhib inactive, Env fusion inh 23, MT1-MMP act inh 0 and MT1-MMP act inh RFP 4.
For CCCCCCC(=O)OCC(=O)c1ccc2c(c1)NC(=O)CO2 the results were PABP polyA inh 3, CSC inhib -7, eIF4H FP inh -1, Yeast UUG start -8, Rce1 inhib inactive, Env fusion inh 0, MT1-MMP act inh 4 and MT1-MMP act inh RFP 4.
Screening COc1ccc2nc(-c3cccc(N)c3)[nH]c2c1 returned PABP polyA inh 13, CSC inhib 3, eIF4H FP inh 7, Yeast UUG start -27, Rce1 inhib inactive, MT1-MMP act inh 8 and MT1-MMP act inh RFP 0.
Cc1nn(-c2ccccc2)cc1/C=N/NC(=O)c1cccs1 was read as PABP polyA inh -12, CSC inhib 9, eIF4H FP inh -6, Rce1 inhib inactive, Env fusion inh -12, MT1-MMP act inh 6 and MT1-MMP act inh RFP 0.
For O=C(c1ccc(CS(=O)Cc2ccc(Cl)cc2)o1)N1CCN(c2cccc(Cl)c2)CC1 (configuration not stated) the results were PABP polyA inh 0, CSC inhib -11, eIF4H FP inh -16, Yeast UUG start 0, Rce1 inhib inactive, Env fusion inh 10, MT1-MMP act inh 4 and MT1-MMP act inh RFP -8.
For Cn1c(N)c(C(=O)N2CCN(c3ccccc3)CC2)c(=O)n(C)c1=O the results were Yeast UUG start 6, Env fusion inh -6, MT1-MMP act inh -2 and MT1-MMP act inh RFP 2.
`COc1ccc(OC)c2[nH]c(=O)c(CCNC(=O)C3CCCCC3)cc12` gave PABP polyA inh -3, CSC inhib 6, eIF4H FP inh 4, Yeast UUG start 8, Rce1 inhib inactive, MT1-MMP act inh 4 and MT1-MMP act inh RFP 2.
O=C1CC(Nc2ccc(N3CCOCC3)cc2)C(=O)N1c1ccccc1F (configuration not stated) was read as PABP polyA inh 4, CSC inhib -2, eIF4H FP inh 4, Yeast UUG start -12, Rce1 inhib inactive, Env fusion inh 7, MT1-MMP act inh 2 and MT1-MMP act inh RFP 3.
For O=C(O)c1ccccc1-c1ccccc1C(=O)Nc1cccc2ccccc12 the results were PABP polyA inh -8, CSC inhib -5, eIF4H FP inh -10, Yeast UUG start -3, Rce1 inhib inactive, Env fusion inh 2, MT1-MMP act inh -5 and MT1-MMP act inh RFP 4.
CC(=O)NCCNc1ccc([N+](=O)[O-])cc1C#N was read as PABP polyA inh 11, CSC inhib 0, eIF4H FP inh 8, Yeast UUG start -13, Rce1 inhib inactive, Env fusion inh -7, MT1-MMP act inh 3 and MT1-MMP act inh RFP 2.
For CCCCC(=O)N/N=C/c1ccc(N2CCOCC2)c([N+](=O)[O-])c1 the results were PABP polyA inh -2, CSC inhib -4, eIF4H FP inh -1, Rce1 inhib inactive, Env fusion inh -12, MT1-MMP act inh 1 and MT1-MMP act inh RFP -1.
For Cn1c(CC(=O)Nc2ccccc2F)nnc1SCC(=O)N1CCOCC1 the results were PABP polyA inh 24, CSC inhib -20, eIF4H FP inh 2, Yeast UUG start -13, Rce1 inhib inactive, Env fusion inh -7, MT1-MMP act inh -4 and MT1-MMP act inh RFP 0.
